B2AR ag – human beta-2 adrenergic receptor agonism by FAP; response, % (test concentration not listed); AID 504454; Am2.2-beta2AR cells, FAP receptor internalization, flow cytometry; reference of the scale not given here; hit rate 0.43% among 340,000; P07550;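 active = response above a set limit, near 3 SD of response in nonfluorescent compounds, cut at about 42% in these data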;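 also: stock transfer was 100 nL into about 11 µL; a reference agonist was the positive control; negative values mostly stem from fluorescent compounds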
Ecoli rRNA inh – inhibitors of bacterial rRNA selective over humanized ribosomes; hit rate 1.6% among 350,000; AID 720706; E. coli WT GFP vs humanized-ribosome RFP mutants, fluorescence, 24 h; active compounds read low; DMSO median 0, no signal -100; GFP signal change (wild-type ribosome), % (no concentration beside the values);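 active = significant combined selectivity score with lowered wild-type GFP, culture density cut under 30%, mutant RFP and density less affected; inactive = any of these conditions unmet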; also: one replicate is shown; some compounds called inactive have numbers as strong as hits
ALR H2O2 inh – human ALR oxidase inhibition via reduced H2O2. P55789. purified ALR, DTT oxidation, H2O2 HRP-luminol luminescence. inhibition, % (test concentration not listed). hit rate 3.8% among 290,000;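 active = mean and each replicate at 75% or more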;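 also: stock transfer was 7.5 nL into about 7.5 µL; 0% = neutral wells and 100% = wells with inactivated enzyme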
LANA-H2B inh – blocks KSHV LANA binding to histone H2A/H2B; Q9QR71; cell-free LANA-H2A/H2B peptide, fluorescence polarization; inhibition, % (test concentration not listed); hit rate 0.6% among 320,000; in the data active = inhibition mostly above about 10%, no sharp cut-off; inactive = mostly below about 6.7%;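 also: stock transfer was 7.5 nL into about 10 µL; 0% = median of vehicle wells and 100% = median of positive control wells; one replicate is shown; the record names a cut of 25% in any replicate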
Target sequence (Q9QR71 whole entry, looked up): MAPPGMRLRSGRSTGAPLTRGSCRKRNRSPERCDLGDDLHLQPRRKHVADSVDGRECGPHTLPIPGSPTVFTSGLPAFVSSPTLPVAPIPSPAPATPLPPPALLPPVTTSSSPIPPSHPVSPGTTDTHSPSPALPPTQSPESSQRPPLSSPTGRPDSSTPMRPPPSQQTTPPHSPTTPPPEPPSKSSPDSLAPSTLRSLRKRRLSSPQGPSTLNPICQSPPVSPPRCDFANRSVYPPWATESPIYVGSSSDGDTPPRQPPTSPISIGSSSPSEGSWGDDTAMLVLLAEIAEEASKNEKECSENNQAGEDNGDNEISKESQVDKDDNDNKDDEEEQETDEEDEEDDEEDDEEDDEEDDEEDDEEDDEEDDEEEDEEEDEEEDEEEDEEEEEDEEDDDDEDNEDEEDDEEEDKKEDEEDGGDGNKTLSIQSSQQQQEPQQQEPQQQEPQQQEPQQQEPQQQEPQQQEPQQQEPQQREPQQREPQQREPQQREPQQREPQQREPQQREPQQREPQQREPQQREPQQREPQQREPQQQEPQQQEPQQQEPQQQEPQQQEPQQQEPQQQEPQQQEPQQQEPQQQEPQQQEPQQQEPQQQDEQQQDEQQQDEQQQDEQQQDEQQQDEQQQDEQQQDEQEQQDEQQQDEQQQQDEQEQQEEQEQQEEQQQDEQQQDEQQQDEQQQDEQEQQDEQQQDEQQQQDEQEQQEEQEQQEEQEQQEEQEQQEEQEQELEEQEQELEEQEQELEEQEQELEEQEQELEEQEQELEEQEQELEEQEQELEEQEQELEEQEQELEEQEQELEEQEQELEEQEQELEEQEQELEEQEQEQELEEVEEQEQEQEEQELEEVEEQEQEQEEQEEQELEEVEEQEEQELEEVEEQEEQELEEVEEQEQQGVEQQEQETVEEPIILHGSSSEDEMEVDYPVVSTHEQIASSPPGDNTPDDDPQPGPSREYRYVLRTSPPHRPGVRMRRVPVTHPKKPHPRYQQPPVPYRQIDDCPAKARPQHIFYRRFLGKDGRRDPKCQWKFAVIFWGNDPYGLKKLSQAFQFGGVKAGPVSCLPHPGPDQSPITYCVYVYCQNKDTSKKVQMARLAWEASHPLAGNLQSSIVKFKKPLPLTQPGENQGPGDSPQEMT
Bfl-1 A1 inh – inhibitors of the anti-apoptotic protein A1, read as caspase activation; MEF A1-2A-BIM cells, Caspase-Glo 3/7 luminescence, 3 h; percent of clofoctol response, vehicle zero; hit rate 0.066% among 330,000; AID 2462; caspase activation, % (test concentration not listed);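 active = over half of replicate activation scores above 10%, or exactly half above 10 with the replicate mean above 10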;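 also: wells of about 30 µL received 50 nL stock; many hits fall short of the cut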
T cruzi inh – T. cruzi replication inhibition; T. cruzi beta-gal in NIH3T3, luminescence, 90 h; AID 1885; hit rate 1.4% among 300,000; inhibition, % (test concentration not listed);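 active = mean inhibition across valid replicates above about 55%, limit read from the data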;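 also: signal also drops with host cell toxicity which is not excluded here; 0% = plate median of DMSO wells and 100% = zero luminescence signal; higher percent means less beta-gal luminescence so fewer parasites; stock transfer was 50 nL into about 50 µL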
Calb FLC – C. albicans growth modulation with fluconazole. AID 1979. hit rate 0.57% among 300,000. growth inhibition, % (concentration not given with the values). C. albicans CaCi-2 (fluconazole-resistant clinical isolate) + fluconazole, Alamar Blue growth, 48 h;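 active = most replicates above 75%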;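 also: all wells also contain fluconazole at 8 µg/ml as a sub-toxic cotreatment; 0% = median of DMSO wells and 100% = median of geldanamycin control wells; wells of about 8 µL received 7.5 nL stock; the first replicate is given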
Beta cell apopt – blocks beta cell apoptosis; hit rate 0.8% among 300,000; INS-1E cytokine-induced death, ATP luminescence, 48 h; percent of positive-control rescue, neutral wells zero; protection from apoptosis, % (no concentration beside the values);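 active = all replicates at 75% or more, or half of them and the mean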;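 also: 0% = cytokine-treated negative control wells and 100% = positive control rescue; higher means more ATP so stronger rescue from cytokine killing; wells of about 40 µL received 100 nL stock; the first replicate is given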
Ecoli rRNA inh OD600 – also measured in Ecoli rRNA inh; calls as there; OD600 change, %; measured here: OD600 growth;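 optical density of the mix in the first replicate; 0 = DMSO median and -100 = no signal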
Ecoli rRNA inh RFP – also measured in Ecoli rRNA inh; calls as there; RFP signal change, %; measured here: RFP humanized mutant strains;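 first replicate; 0 = DMSO median and -100 = no signal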
* = called active by the depositor; / = not tested or not shown. A portion of the library (hit frequency here may not be typical).

SMILES	B2AR ag	Ecoli rRNA inh	Ecoli rRNA inh OD600	Ecoli rRNA inh RFP	ALR H2O2 inh	LANA-H2B inh	Bfl-1 A1 inh	T cruzi inh	Calb FLC	Beta cell apopt
CCCC(C)c1nnc(NC(=O)C2CC(=O)N(CCc3ccc(F)cc3)C2)s1 (stereo not drawn)	6	-2	9	1.5	/	-5.1	1.1	2	1	-5
O=C(CSc1n[nH]c(-c2ccco2)n1)Nc1ccccc1F	-15	-2	13	-4.2	/	-1.4	-0.4	10	-5	2
Cc1cnc2cc(Cl)ccc2c1SCC(=O)O	-4	-6	-4	1.3	-1	1.4	1.0	-6	9	-3
COn1c(SCc2ccc(C)cc2C)nc2ccccc2c1=O	-9	/	/	/	0	-4.0	-0.9	-8	16	3
Cc1ccccc1NS(=O)(=O)c1ccc2[nH]c(=O)[nH]c2c1	1	-2	-20	1.1	-4	0.4	0.2	5	-19	-4
CCCc1cc(=O)oc2cc3occ(C)c3cc12	-10	/	/	/	1	1.9	-0.2	0	5	-12
CCCC(C)NC(=O)c1ccc(F)cc1 (stereo not drawn)	3	/	/	/	-1	1.6	-0.1	-6	-13	2
COc1ccccc1CNC(=O)COC(=O)c1cccnc1SCC(=O)NCc1ccccc1OC	-4	2	5	1.1	/	2.9	-0.3	-6	-7	4
COc1ccccc1-n1cc(-c2ccc(Cl)cc2)[nH]c1=O	7	/	/	/	/	-2.8	-0.5	2	-1	-1
CCOc1ccc(NC(=O)C2CC(=O)N=C(N)S2)cc1 (stereo not drawn)	8	/	/	/	/	-3.0	0.3	-7	-10	-4
Cc1cc(C)c(C#N)c(SCC(=O)NN2CC(=O)N(c3ccccc3F)CC2=O)n1	-2	/	/	/	-7	1.5	1.0	0	-7	-3
O=Cc1c(NC2CCCCC2)c2ccccc2[nH]c1=O	-2	7	1	4.0	-2	1.3	-0.2	-8	6	2
COc1ccccc1C(=O)NCCC(=O)NCC(c1ccc(F)cc1)N1CCOCC1 (stereo not drawn)	-6	7	8	-0.4	-19	-5.2	-0.7	-9	-3	0
Cn1c(N)c(C(=O)COC(=O)/C=C/c2cccc(Br)c2)c(=O)n(C)c1=O	7	4	0	-2.3	/	-2.8	-0.9	/	/	-8
C/C(=N\NC(=O)c1ccncc1)c1cccc(NC(=O)c2ccc(C(C)(C)C)cc2)c1	25	-1	-15	2.2	2	-2.0	0.6	1	7	6
Cc1ccc(C2(c3noc(CN(C)Cc4cnn(C)c4)n3)CCCC2)cc1	9	-25	-37	-7.2	-40	-1.2	-0.8	4	8	/
N#C/C(=C\c1cccs1)C(=O)Nc1nccs1	/	-1	7	5.8	-15	-9.2	-4.9	12	28	3
CSc1nc2c(c(=O)[nH]1)C(c1ccccc1Cl)CC(=O)N2 (stereo not drawn)	2	23	22	5.1	-15	4.5	0.4	0	-3	/
Fc1ccccc1Nc1nc(N2CCOCC2)nc(N2CCOCC2)n1	-4	8	6	-0.5	19	-2.2	0.3	15	-2	-7
COCc1cc(=O)[nH]c(-c2ccc(C(F)(F)F)cc2)n1	9	23	17	0.9	/	5.9	0.0	-12	3	/
COCCNc1nc2sc3c(c2c(=O)n1Cc1ccco1)CCCCC3	11	13	14	-1.8	3	-0.5	-0.4	25	8	1
COc1ccccc1NC(=O)c1ccccc1NS(C)(=O)=O	7	/	/	/	-1	2.7	1.8	-8	4	3
CCN1CCN(C(=O)c2ccccc2N(Cc2ccccc2)S(C)(=O)=O)CC1	-1	/	/	/	-1	5.6	0.4	6	0	-1
CC(C)C(NC(=O)C1CCCCC1)C(=O)N1CCN(c2ccc(F)cc2)CC1 (stereo not drawn)	2	/	/	/	4	-2.3	0.2	-5	0	1
O=C(O)CCC/C=C\C[C@@H]1[C@@H](/C=C/[C@@H](O)COc2cccc(Cl)c2)[C@H](O)C[C@@H]1O	0	/	/	/	-5	5.8	1.5	-4	/	-1
Cc1ccc(C(=O)Nc2ccc(F)c(S(=O)(=O)N3CCOCC3)c2)s1	10	-5	-23	-2.0	-3	0.8	-0.2	/	/	-2
O=C1c2ccccc2C(Nc2ccc(Cl)cn2)N1c1cccnc1 (stereo not drawn)	8	-5	-7	0.4	-4	-0.6	-0.1	3	7	3
CC(=O)N1CCN(c2ccc([N+](=O)[O-])c(-n3nc(C)cc3C)c2)CC1	2	7	0	-1.2	-11	2.9	-0.4	-7	11	0
C[C@H]1COC(=O)[C@@H](Cc2ccc(F)cc2)C/C=C\C[C@@H](CC(=O)NCCO)C(=O)N1	5	15	13	0.7	4	-4.1	2.1	/	/	-3
Cc1ccc(S(=O)(=O)CC(=O)N2CCN(c3ccc([N+](=O)[O-])cc3)CC2)cc1	2	-11	-20	2.0	-4	-5.0	-1.0	/	/	4

Arranged by formula weight (low to high): part of the list above
SMILES	B2AR ag	Ecoli rRNA inh	Ecoli rRNA inh OD600	Ecoli rRNA inh RFP	ALR H2O2 inh	LANA-H2B inh	Bfl-1 A1 inh	T cruzi inh	Calb FLC	Beta cell apopt
CCCc1cc(=O)oc2cc3occ(C)c3cc12	-10	/	/	/	1	1.9	-0.2	0	5	-12
O=Cc1c(NC2CCCCC2)c2ccccc2[nH]c1=O	-2	7	1	4.0	-2	1.3	-0.2	-8	6	2
CCOc1ccc(NC(=O)C2CC(=O)N=C(N)S2)cc1 (stereo not drawn)	8	/	/	/	/	-3.0	0.3	-7	-10	-4
COc1ccccc1-n1cc(-c2ccc(Cl)cc2)[nH]c1=O	7	/	/	/	/	-2.8	-0.5	2	-1	-1
Cc1ccccc1NS(=O)(=O)c1ccc2[nH]c(=O)[nH]c2c1	1	-2	-20	1.1	-4	0.4	0.2	5	-19	-4
O=C(CSc1n[nH]c(-c2ccco2)n1)Nc1ccccc1F	-15	-2	13	-4.2	/	-1.4	-0.4	10	-5	2
CSc1nc2c(c(=O)[nH]1)C(c1ccccc1Cl)CC(=O)N2 (stereo not drawn)	2	23	22	5.1	-15	4.5	0.4	0	-3	/
Fc1ccccc1Nc1nc(N2CCOCC2)nc(N2CCOCC2)n1	-4	8	6	-0.5	19	-2.2	0.3	15	-2	-7
Cc1ccc(C2(c3noc(CN(C)Cc4cnn(C)c4)n3)CCCC2)cc1	9	-25	-37	-7.2	-40	-1.2	-0.8	4	8	/
Cc1ccc(C(=O)Nc2ccc(F)c(S(=O)(=O)N3CCOCC3)c2)s1	10	-5	-23	-2.0	-3	0.8	-0.2	/	/	-2
O=C(O)CCC/C=C\C[C@@H]1[C@@H](/C=C/[C@@H](O)COc2cccc(Cl)c2)[C@H](O)C[C@@H]1O	0	/	/	/	-5	5.8	1.5	-4	/	-1
Cc1cc(C)c(C#N)c(SCC(=O)NN2CC(=O)N(c3ccccc3F)CC2=O)n1	-2	/	/	/	-7	1.5	1.0	0	-7	-3
COc1ccccc1C(=O)NCCC(=O)NCC(c1ccc(F)cc1)N1CCOCC1 (stereo not drawn)	-6	7	8	-0.4	-19	-5.2	-0.7	-9	-3	0

Carrying on.
SMILES	B2AR ag	Ecoli rRNA inh	Ecoli rRNA inh OD600	Ecoli rRNA inh RFP	ALR H2O2 inh	LANA-H2B inh	Bfl-1 A1 inh	T cruzi inh	Calb FLC	Beta cell apopt
Cc1ccc(NC(=O)CSc2nnc(CNC(=O)c3ccco3)n2C)cc1C	-3	6	13	0.1	/	/	2.7	-6	-2	-12
Cc1nc(-c2cccc(NS(C)(=O)=O)c2)cs1	-5	6	0	-2.4	2	4.7	-0.4	-8	-16	-3
COc1ccc(CN(CC(=O)NC2CCCCC2)C(=O)CCCC(=O)Nc2ccccn2)cc1	4	2	1	2.1	1	2.1	-1.4	7	-13	-8
COc1ccc2c(c1)C(=O)CCC2c1ccccc1 (stereo not drawn)	0	-40	-53	-13	/	-5.0	1.1	-15	5	-11
O=C(O)c1ccccc1C(=O)N1CC=C(c2ccccc2)CC1	-4	/	/	/	-5	-8.9	1.5	31	2	2
O=C(CCSc1ccc(Cl)cc1)NC1CCCCC1	3	/	/	/	-5	1.0	0.9	13	-6	-7
COc1cccc(NC(=S)NC(=O)/C=C/c2ccc(F)cc2)c1	5	16	17	3.7	-4	-2.2	0.1	-2	3	-11
Cc1ccc(SC2CC(=O)N(c3ccc4c(c3)OCCO4)C2=O)cc1 (stereo not drawn)	7	-10	-10	3.3	98*	-2.0	0.6	13	-3	-36
COc1ccc(-n2ccnc2SCC(=O)NCc2ccco2)c(OC)c1	-1	-2	2	-1.4	4	-441	0.4	-7	44	-6
O=C(CCN1C(=O)c2ccccc2S1(=O)=O)Nc1ccc(F)cc1F	-1	3	4	0.3	-2	8.5	0.1	-5	-4	0
Nc1nonc1-n1nnc(C(=O)N/N=C/c2ccncc2)c1-c1cccs1	-6	-2	4	-1.3	-1	1.4	0.2	2	14	-12
COc1cc(NC(=S)NC(=O)C(C)C)ccc1NC(=O)c1cc2ccccc2o1	-5	-2	4	-2.8	-5	4.4	-0.1	10	4	2
Cc1ccc(S(=O)(=O)Nc2cnc3ccccc3c2)cc1	-3	-17	-26	-2.5	21	-7.5	-0.4	-8	2	9
CCOC(=O)[C@H]1[C@H]2COc3ccc(Br)cc3[C@@H]2N2C(=O)c3cc(Br)ccc3NC(=O)[C@@]12C	1	4	-2	-9.1	/	2.7	-0.4	/	/	-6
O=C(C1CCC(=O)N(C2CC2)C1)N(CCO)Cc1ccccc1 (stereo not drawn)	-1	5	13	0.2	2	1.5	0.4	-8	-7	0
O=C(O)CCc1nc2ccccc2n(CCc2ccccc2)c1=O	1	/	/	/	9	-1.3	0.8	7	3	7
CCCc1c(C)nn(C(=O)/C(C#N)=N/Nc2ccccc2[N+](=O)[O-])c1C	8	7	-1	-2.4	3	-0.1	-1.5	11	11	-4
CC(=O)Nc1ccc(S(=O)(=O)Nc2nnc(C(C)C)s2)cc1	1	/	/	/	4	1.5	0.0	-14	-6	-4
CC1=C(C(=O)Nc2ccccc2)C(c2ccco2)NC(=S)N1 (stereo not drawn)	1	/	/	/	0	0.0	-0.5	-14	1	-1
CCC(=O)NNc1ccc(Br)cc1	3	/	/	/	27	3.0	-0.2	-10	-31	4
Cc1ccc(C2(C)NC(=O)N(CC(=O)Nc3ccc4c(c3)OCO4)C2=O)cc1 (stereo not drawn)	3	/	/	/	-9	1.4	-0.6	6	30	-2
Cc1cccc(-c2nc3c(c(SCC(=O)N(C)C)n2)CCCC3)c1	-10	/	/	/	1	1.9	0.7	24	5	-7
